Source: PubChem (National Center for Advancing Translational Sciences (NCATS))
Vaccinia mCherry: inhibitors of vaccinia virus infection (mCherry reporter signal). Vaccinia virus mCherry reporter infection, fluorescence; about a quarter of the inactives have no number. Potency, µM (highest dose often 36.5 µM), inactives show at the highest dose activity change, negative = inhibition, usual class: inhibitors. actives 0.63% (n = 310,000). AID 720579; active = well fitted inhibition curve with a large enough effect; inconclusive = small, poorly fitted or top-dose-only effect; inactive = no such curve, though single readings can be large or run the other way; tested in A549 cells; further: nearly all actives have a fitted effect of over 35% in size; inactives centre near -10
Vaccinia Venus: inhibitors of vaccinia virus (Venus reporter); Vaccinia virus Venus reporter expression, fluorescence; Potency, µM (doses to about 36.5 µM), without a hit: top-dose activity change, negative = inhibition, actives largely listed as inhibitors; actives 0.46% (n = 330,000); active means well fitted inhibition curve with a large enough effect; inconclusive means small, poorly fitted or top-dose-only effect; inactive means no such curve, though single readings can be large or run the other way; tested in A549 cells; further: nearly all actives have a fitted effect of over 30% in size; inactives centre near -10
The depositor's hits bear a star; i = inactive; ? = inconclusive; / = not tested or not shown; & = joins results of further samples; [ ] = another dose, or the depositor's remark. On the % scale 0 is the no-effect control and ±100 the full control effect; potency means the concentration at half of the fitted maximal effect.

Values in the order – Vaccinia mCherry	Vaccinia Venus
> COc1ccc(NC2=CC(=S)NC(C)(C)C2)cc1
→ -12%	-6%
> CCOc1ccccc1C(=O)Nc1ccc(S(=O)(=O)N2CCOCC2)cc1
→ /	?
> Cc1nc(CC(=O)Nc2ccc(C)c(C)c2)cs1
→ 0%	-6%
> C/C=C(\C)C(=O)N[C@@H](c1ccccc1)[C@@H](O)C(=O)O[C@H]1C[C@@]2(O)[C@@H](OC(=O)c3ccccc3)C3[C@](C)(C(=O)[C@H](OC(C)=O)C(=C1C)C2(C)C)[C@@H](O)C[C@H]1OC[C@@]31OC(C)=O (some centres not stated)
→ -20%	-22%
> COCCCNC(=S)N/N=C/c1ccc(N(C)C)cc1Cl
→ -8%[7.34 µM]	-8%[7.34 µM]
> COc1cc2[nH]c(=S)n(Cc3cccs3)c(=O)c2cc1OC
→ i	-5%
> COc1cccc(Sc2ccccc2/C=N/NC(N)=O)c1
→ -18%	-15%
> CCc1cccc(CC)c1NC(=S)N1CCn2cccc2C1c1cccnc1 (configuration not stated)
→ -14%	3%
> NP(=O)(Oc1ccccc1)Oc1ccccc1
→ -6%	-1%
> CCOC(=O)c1ccc(N2C(=O)c3[nH]nc(-c4ccc(OCC)cc4)c3C2c2cccs2)cc1 (configuration not stated)
→ ?	?
> Cc1cccc(NC(=O)COC(=O)c2ccc(S(=O)(=O)N3CCCCCC3)cc2)c1
→ -3%	-25%
> O=C(Nc1ccc(Cl)cc1C(F)(F)F)c1cc(S(=O)(=O)NCc2ccccc2)ccc1F
→ -19%	-13%
> O=C(C1CCN(Cc2nc(Cc3cccc(F)c3)no2)CC1)N1CCOCC1
→ -4%	0%
> Cc1ccc(S(=O)(=O)N2CCCOC2CNC(=O)C(=O)NCc2ccco2)cc1 (configuration not stated)
→ -10%	-3%
> CCC(c1nnc(SCC(=O)Nc2ccc(N3CCOCC3)cc2)n1Cc1ccccc1)N(C)C (configuration not stated)
→ -16%	-13%
> COc1ccc(CNC(=O)Cn2nc(C)c3nn(-c4ccc(Cl)cc4)c(C)c3c2=O)cc1
→ -16%	-18%
> Cc1snnc1C(=O)NC(=S)Nc1ccccc1
→ i	-11%
> CSCC[C@@H](C(=O)NCCCCCCCCCCC(=O)N1CCNCC1)n1cc(CCO)nn1
→ i	-12%
> O=C(CSc1nc(-c2ccccc2)no1)N1CCN(c2ccccc2F)CC1
→ -4%	-4%
> COCCn1c(C)cc(C(=O)COc2cccnc2[N+](=O)[O-])c1C
→ i	2%
> CCc1cc(Cn2nc(-c3ccccc3)cc2C(=O)NCC2CC2)on1
→ -15%	-4%
> COc1ccccc1NC(=O)C1=C(C)Nc2nnnn2C1c1cc(Br)c(O)c(OC)c1 (configuration not stated)
→ -12%	1%
> COc1ccc(CNS(=O)(=O)c2ccc(S(=O)(=O)NC3CC3)cc2)cc1
→ -27%	?
> CCS(=O)(=O)c1c(Nc2ccc(F)c(Cl)c2)sc(C(=O)c2ccccc2)c1N
→ -21%	-28%
> CCCCCCCCN1C(=O)[C@H](CC(=O)NCc2ccc(OC)c(OC)c2)C[C@@]2(C(=O)OC)CC(C)(C)CC=C12
→ i	?
> COCCN(C(=O)CSc1nnc(-c2ccccc2F)o1)c1c(N)n(CC(C)C)c(=O)[nH]c1=O
→ 1%	3%
> O=C(CCC(=O)OCc1cccc([N+](=O)[O-])c1)Nc1ccc(F)cc1
→ -17%	-5%
> CCOC(=O)N1CCN(C(=O)CSc2nnc(-c3ccc(C)c(C)c3)o2)CC1
→ 10µM*	?
> O=C(NCc1cccc(Cl)c1)c1ccc(CS(=O)Cc2ccc(Cl)cc2)o1 (configuration not stated)
→ -4%	-22%
> COc1c(C)cc(C(=O)C2CCCN(C(=O)CCc3scnc3C)C2)cc1C (configuration not stated)
→ -25%	-16%
> N[C@@H](CO)c1nnc([C@H](Cc2ccc(O)cc2)NC(=O)C2CCNCC2)o1
→ -13%	-8%
> COc1ccc(S(=O)(=O)NC(C)C(=O)NCc2ccncc2)cc1OC (configuration not stated)
→ -2%	-3%
> COC[C@@H]1NS(=O)(=O)c2ccc(Br)cc2O[C@H]1c1ccccc1
→ i	3%
> COc1ccccc1NC(=O)CN1C(=O)COc2ccc(S(=O)(=O)N3CCOCC3)cc21
→ -13%	-7%
> COc1ccccc1C(=O)Nc1cccc(OCc2cc(=O)n3c(C)csc3n2)c1
→ -14%	-3%
> FC(F)(F)Oc1ccccc1C(c1nnnn1C1CCCCC1)N1CCN(C/C=C/c2ccccc2)CC1 (configuration not stated)
→ -5%	-14%
> NC(=O)NC(=O)CN1C(=O)NC(c2ccccc2)(c2ccccc2)C1=O
→ -20%	5%
> COc1ccccc1CNC(=O)CS(=O)(=O)c1cccc2nsnc12
→ 0%	2%
> CCN1CCN(S(=O)(=O)c2ccc(Cl)c(C(=O)NCCc3ccccc3)c2)CC1
→ -23%	-9%
> CCOC(=O)C1=CN(Cc2cccc(Br)c2)S(=O)(=O)N(CC)C1C (configuration not stated)
→ -8%	-17%
> CCCN1C(=O)c2cc(C(=O)NCc3ccc(OC)cc3)ccc2C1O (configuration not stated)
→ 15%	-4%
> CC[C@]12c3[nH]c4ccc(Cl)cc4c3CCN1C(=O)[C@@H](CC(=O)NCCCN(C)C)C[C@@H]2C(=O)N1CCN(C(=O)c2ccco2)CC1
→ -7%	-6%
> CCc1c(-c2ccc(Br)cc2)ncn1Cc1cccc(-c2ccccc2)c1
→ ?	-22%
> Cc1cc(C)cc(NC(=O)COc2ccc(C(=S)N3CCOCC3)cc2)c1
→ -8%	-8%
> O=C(CNC(=O)c1ccccc1F)Nc1ccccc1C(F)(F)F
→ -10%	3%
> CC(Sc1ccccc1)C(=O)NNC(=O)c1ccncc1 (configuration not stated)
→ -2%	-9%
> CCn1c(SCC(=O)NC(=O)NCc2ccco2)nc2sc(C)c(C)c2c1=O
→ /	-2%
> COc1ccc(C(=O)Oc2cc(/C=N/NS(=O)(=O)c3ccccc3)ccc2OC)cc1
→ /	-18%
> COc1ccc(-c2cc(=O)c(C(=O)c3ccc(C)cc3)n[nH]2)cc1
→ 2%	-3%
> COc1ccc(CNC(=O)c2cnc(N3CCCC3)nc2C)c(OC)c1
→ 1%	6%
> Cc1cccc2cc(COC(=O)COc3ccccc3)c(=O)[nH]c12
→ /	-2%
> O=C(c1ccc2c(c1)OCO2)N(CC1CCCO1)C1(C(=O)NC2CCCC2)CCCCC1 (configuration not stated)
→ -21%	-8%
> CCOC(=O)C1(CCOc2ccccc2)CCN(Cc2cnc(C)[nH]2)CC1
→ -12%	-26%
> Cc1c(Cc2ccccc2)c(=O)oc2cc(OCC(=O)N3CCC(C(N)=O)CC3)ccc12
→ -22%	-14%
> CCNC(=O)NC(=O)C(C)Sc1nc2cc(C(=O)OC)ccc2c(=O)n1-c1ccccc1 (configuration not stated)
→ /	-10%
> COc1ccc(N2C(=O)CC(NCc3ccc(F)cc3)C2=O)cc1 (configuration not stated)
→ /	-9%
> CCCOc1cccc(C2C(C(=O)c3ccc(C)o3)=C(O)C(=O)N2CCN2CCOCC2)c1 (configuration not stated)
→ -6%	0%
> Nc1ccccc1OCCOc1ccccc1N
→ -9%	-8%
> O=C(Oc1ccc2ccccc2c1)c1ccccc1
→ -18%	-18%
> O=C(NCc1ccccc1F)Nc1ccc([N+](=O)[O-])cc1
→ -7%	-16%

(cont.)
Values in the order – Vaccinia mCherry	Vaccinia Venus
> CCOC(=O)c1cnn2c1[nH]c(=O)c1ccccc12
→ /	?
> c1ccc2c(c1)nc(NCCN1CCOCC1)c1nncn12
→ -12%	-3%
> CCc1cccc(NC(c2nnc(-c3ccccc3)o2)c2ccc(F)cc2Cl)c1 (configuration not stated)
→ -21%	-5%
> CCOc1ccccc1CNC(=O)c1nc(-c2ccc(Cl)cc2)n2c1CCCCC2
→ -10%	-21%
> Cc1cc(C(=O)OCC(=O)Nc2cc(Cl)ccc2C)c(C)o1
→ -12%	-14%
> COCCCNC(=O)CN1C(=O)COc2ccc(S(=O)(=O)N3CCCC3)cc21
→ 3%	0%
> COc1ccc(Nc2cc(C(=O)NCCCN(C)c3ccccc3)c3ccccc3n2)c(OC)c1
→ -16%	-5%
> COc1ccc(-c2nn(CCC#N)cc2C(=O)Nc2ccccn2)cc1OC
→ i	-12%
> O=C(NC(=S)Nc1ccc(S(=O)(=O)Nc2ncccn2)cc1)c1cccc(Br)c1
→ -9%	-8%
> CC1Cc2ccccc2N1CC(=O)NCc1ccccc1Cl (configuration not stated)
→ i	-14%
> O=C(O)C1CCCCC1C(=O)Nc1ccccc1C(=O)N1CCN(c2ccc(F)cc2)CC1 (configuration not stated)
→ -13%	-5%
> CCOC(=O)C(CCCOc1ccccc1)C(=O)OCC
→ /	-26%
> O=C(N/N=C/C=C/c1ccco1)/C(=C/c1ccccc1)NC(=O)c1ccccc1
→ 0%	-17%
> COc1ccc2c(c1OC)C(=O)OC2
→ i	1%
> CC(=O)Nc1ccc(S(=O)(=O)NC2(C(F)(F)F)C(=O)Nc3c2c(=O)[nH]c(=O)n3Cc2ccco2)cc1 (configuration not stated)
→ i	-5%
> O=C(NCCc1ccccn1)c1ccc(OC(F)F)cc1
→ i	-7%
> CCOC(=O)C1(C(=O)OCC)NC(=O)CC1CC (configuration not stated)
→ -5%	0%
> O=C(COC(=O)/C=C/c1ccc(OC(F)F)cc1)NCc1cccs1
→ -13%	-13%
> CC(=O)Nc1cccc(N(C)C)c1
→ /	-7%
> CC(CN1CCOCC1)OC(=O)c1ccccc1 (configuration not stated)
→ -11%	-3%
> Cc1ccnc2nc(C(=O)OCCOc3cccc(Br)c3)nn12
→ -12%	-8%
> COc1ccc(/C=N/NC(=O)c2ccco2)cc1OCc1ccccc1
→ -9%	-8%
> COc1ccc(Cn2nnnc2C(c2ccccc2)N2CCN(c3ccccc3)CC2)cc1 (configuration not stated)
→ -12%	-18%
> COc1ccccc1CCNC(=O)C(=O)NCC(c1ccco1)S(=O)(=O)c1cccs1 (configuration not stated)
→ -6%	-12%
> O=C(Nc1ccno1)Nc1ccc(Cl)cc1Cl
→ -20%	?
> O=C(CSc1nnc(CNc2ccc(F)cc2)n1Cc1ccccc1)NCc1ccccc1
→ -25%	-17%
> Cc1ccccc1-c1nc(CN2CCC(C(=O)NC3CCCCC3)CC2)c(C)o1
→ i	-8%
> N#C/C(=C\c1ccc(OCCN2CCOCC2)cc1)C(=O)Nc1ccccc1
→ -10%	-13%
> CC(C)[C@H](CN(N=O)[C@@H](Cc1ccccc1)CN(C)N=O)N(CCc1ccccc1)N=O
→ i	-15%
> Cc1cc(OCCn2cnc3ccccc3c2=O)cc(C(C)C)c1
→ -11%	-8%
> CC(NS(=O)(=O)c1ccc(Br)cc1)C(=O)NCc1ccc2c(c1)OCO2 (configuration not stated)
→ -1%	-2%
> Cc1ccc(-c2ccc(=O)n(C(C)C(=O)Nc3ccccc3Cl)n2)cc1C (configuration not stated)
→ -7%	-6%
> Cc1c(OCC(=O)OC(C)(C)C)ccc2c3c(c(=O)oc12)CCC3
→ /	-21%
> COC(=O)CCN(c1ccccc1)S(=O)(=O)c1cc(-c2cc(C)no2)ccc1OC
→ -24%	-19%&-14%
> COc1ccc(S(=O)(=O)n2nc(C)c(S(=O)(=O)N3CCCCC3)c2C)cc1
→ -16%	-10%
> Cc1nnsc1NC(=O)OCCCl
→ /	?
> CC(=O)c1cccc(NC(=O)CSc2ccc(-c3ccc4c(c3)OCO4)nn2)c1
→ -12%	1%
> CCC1=C(OC(=O)N(CC)CC)N2C(=O)OC(=NCCc3c[nH]c4ccccc34)[C@]2(C)[C@H]2C1=CC[C@H]1C(=O)N(CC(=O)OC)C(=O)[C@H]12
→ ?	-13%
> Cc1ccc(/C=C2\OC(=O)c3ccccc32)cc1
→ i	-21%
> Clc1cccc(CNc2ccn3nc(-c4ccccc4Cl)cc3n2)c1
→ 21%	-7%
> CCCC(=O)OCCNc1cc(Sc2nccn2C)c2nonc2c1[N+](=O)[O-]
→ -23%	-8%
> Cc1cnc(-c2nc3ccccc3n2C(C(=O)NC(C)(C)C)c2ccncc2)cn1 (configuration not stated)
→ 0%	-7%
> COc1cccc(CNC(=O)Cn2cc([N+](=O)[O-])cn2)c1
→ -21%	-4%
> CCN(CC)CCN(C(=O)c1ccc2ncsc2c1)c1nc2cc3c(cc2s1)OCO3
→ ?	-15%
> COc1ccccc1N1CCN(C(=O)C2CCCO2)CC1 (configuration not stated)
→ -14%	-2%
> N[C@@H](CC(=O)O)C(=O)O
→ i	-13%
> CCOC(=O)[C@@H]1[C@H]2COc3ccccc3[C@H]2N2C(=O)N(c3ccc(C)cc3)C(=O)[C@]12C
→ -2%	-20%
> COc1cc2c(cc1OC)CN(C(=O)c1ccc(S(=O)(=O)N3CCCCCC3)cc1)CC2
→ -7%	-16%
> COc1ccccc1-c1c(NC(=O)c2ccco2)n(C)c2ccccc2c1=O
→ -10%	15%

Some of the entries so far, in CSV form.
smiles,Vaccinia mCherry,Vaccinia Venus
N[C@@H](CC(=O)O)C(=O)O,i,-13%
CCOC(=O)[C@@H]1[C@H]2COc3ccccc3[C@H]2N2C(=O)N(c3ccc(C)cc3)C(=O)[C@]12C,-2%,-20%
COc1cc2c(cc1OC)CN(C(=O)c1ccc(S(=O)(=O)N3CCCCCC3)cc1)CC2,-7%,-16%
COc1ccccc1-c1c(NC(=O)c2ccco2)n(C)c2ccccc2c1=O,-10%,15%

As entered above:
In Vaccinia Venus, CCOC(=O)[C@@H]1[C@H]2COc3ccccc3[C@H]2N2C(=O)N(c3ccc(C)cc3)C(=O)[C@]12C has the entry -20%
In Vaccinia Venus, N[C@@H](CC(=O)O)C(=O)O has the entry -13%
